Bioassay records from PubChem.
2A StopGo = FMDV 2A StopGo reporter, luciferase signal | human cells with a luciferase reporter of 2A StopGo recoding; control for the full effect not named in the record | actives 1.2% (n = 410,000) | Potency, µM (series often up to 57.9 µM), without a hit: at the top dose signal change, negative = less light; active = well fitted falling curve with a large enough effect; inconclusive = small, poorly fitted or top-dose-only effect; inactive = no such curve, though single readings can be large or run the other way; tested in HEK293T cells; also: % is scaled to controls: 0 for no effect and ±100 for the full control effect; nearly all actives have a fitted effect of over 45% in size; luciferase light after 4 h
Cruzain inh noDet = inhibitors of Trypanosoma cruzi cruzain without detergent | P25779 | purified cruzain, Z-FR-AMC fluorescence, no detergent | Potency, µM, for the others: max response, negative = inhibition, hits mostly inhibitors | actives 2.3% (n = 200,000);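 also: plate controls were enzyme without inhibitor for no effect and buffer without enzyme for full effect; nearly all actives have a fitted effect of over 40% in size; top concentration of the series not given in the record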
Target sequence (P25779 123-467 limits assumed): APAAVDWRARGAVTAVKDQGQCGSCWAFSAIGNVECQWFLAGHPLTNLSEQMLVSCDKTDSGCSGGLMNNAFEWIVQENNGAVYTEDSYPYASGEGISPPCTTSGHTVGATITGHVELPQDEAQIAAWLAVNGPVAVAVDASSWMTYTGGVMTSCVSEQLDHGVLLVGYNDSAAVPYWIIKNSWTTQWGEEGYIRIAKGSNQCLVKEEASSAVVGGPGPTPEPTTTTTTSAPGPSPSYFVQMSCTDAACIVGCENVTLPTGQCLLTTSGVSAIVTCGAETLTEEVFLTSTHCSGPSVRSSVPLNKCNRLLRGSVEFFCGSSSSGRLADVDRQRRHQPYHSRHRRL
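Detergent-free condition (0.00005% Triton X-100) in acetate buffer pH 5.5 with DTT. 1.5 nM enzyme and compound were pre-mixed 15 min, then 2 uM Z-FR-AMC substrate added; reaction progress from fluorescence change between first and third reads (60 s).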
NS1 inh = influenza NS1 inhibition. actives 0.4% (n = 270,000). AID 2326. Potency, µM (top dose mostly 46.1 µM), without a hit: at the highest dose activity, positive = more growth. S. cerevisiae slowed by influenza A NS1, growth recovery by OD600; active means well fitted rising curve with a large enough effect; inconclusive means small, poorly fitted or top-dose-only effect; inactive means no such curve, though single readings can be large or run the other way; also: nearly all actives have a fitted effect of over 50% in size
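OD600 was taken as the measure of yeast growth restored by compound in an NS1-expressing S. cerevisiae strain. Cells had been washed out of glucose medium and diluted 1:100 into galactose -URA medium, pH 6.0.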
Cruzain inh Det = cruzain (T. cruzi) inhibition with detergent. P25779. purified cruzain, Z-FR-AMC fluorescence, 0.01% Triton. Potency, µM, for the others: max response, negative = inhibition, most hits filed as inhibitors. actives 0.43% (n = 200,000);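 also: plate controls were neutral wells for no effect and buffer without enzyme for full effect; nearly all actives have a fitted effect of over 40% in size; top concentration of the series not given in the record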
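Enzyme 1.5 nM, Z-FR-AMC 2 uM, NaOAc 100 mM pH 5.5, DTT 5 mM, Triton X-100 0.01%; 15 min RT compound preincubation; kinetic ex360/em450, 60 s delta.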
RE007 growth inh = less growth of the S. pombe RE007 Vpr strain | S. pombe RE007 Vpr strain, BacTiter-Glo ATP luminescence, 24 h; control for the full effect not named in the record | Potency, µM (highest dose often 92.2 µM), for the others: at the top dose activity change, negative = less growth | actives 0.21% (n = 360,000); active = well fitted falling curve with a large enough effect; inconclusive = small, poorly fitted or top-dose-only effect; inactive = no such curve, though single readings can be large or run the other way;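 also: % is scaled to controls: 0 for no effect and ±100 for the full control effect; nearly all actives have a fitted effect of over 50% in size; the assay follows cell death caused by Vpr and the record does not say whether a fall means rescue or toxicity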
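Fission yeast strain RE007, carrying one chromosomally integrated HIV-1 vpr copy, was seeded at OD 0.01 in PMG+AL medium with 23 nL pinned compound. After 24 h at 30 °C and 99% humidity, viability was read by BacTiter-Glo luminescence.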
SARS PLpro yeast = blocks SARS-CoV papain-like protease in a yeast assay; Potency, µM (series often up to 32.9 µM), inactives show at the highest dose activity, positive = growth rescue; S. cerevisiae expressing SARS-CoV PLpro, growth rescue; control for the full effect not named in the record; actives 0.19% (n = 330,000); AID 485353; active means well fitted rising curve with a large enough effect; inconclusive means small, poorly fitted or top-dose-only effect; inactive means no such curve, though single readings can be large or run the other way; also: 0% is about no effect; nearly all actives have a fitted effect of over 55% in size; growth read by luminescence after 48 h
Marburg entry inh = inhibitors of Marburg virus binding or cell entry | Marburg virus pseudotyped entry inhibition, cell reporter; control for the full effect not named in the record; about a third of the inactives were read at about 46 µM | Potency, µM (doses to about 37.8 µM), without a hit: at the highest dose activity change, negative = inhibition, most hits filed as inhibitors | actives 1.8% (n = 300,000); active = well fitted inhibition curve with a large enough effect; inconclusive = small, poorly fitted or top-dose-only effect, or effect the other way; inactive = flat fitted curve, though single readings scatter; tested in HEK293 cells; about a fifth of its hits are not listed in these tables; also: % is scaled to controls: 0 for no effect and ±100 for the full control effect; luciferase read-out
LASV entry inh = inhibitors of Lassa virus binding or cell entry; Potency, µM (series often up to 37.9 µM), inactives show at the top dose activity change, negative = inhibition, usual class: inhibitors; actives 1.2% (n = 300,000); Lassa virus pseudotype entry inhibition, cell reporter; control for the full effect not named in the record; active means well fitted inhibition curve with a large enough effect; inconclusive means small, poorly fitted or top-dose-only effect, or effect the other way; inactive means flat fitted curve, though single readings scatter; tested in HEK293 cells; also: % is scaled to controls: 0 for no effect and ±100 for the full control effect; nearly all actives have a fitted effect of over 50% in size; luciferase read-out
* hit, by the source's call; ? = inconclusive; nt = no result given; [ ] = dose if it differs, or a comment. Unless noted, calls follow the shape of the dose curve; as a rule, active = well fitted curve in the direction sought with a large enough effect; inconclusive = small, poorly fitted or top-dose-only effect, or another doubt; inactive = no such curve, though single readings can be large; an effect the other way counts as inactive or inconclusive. Potency is read from the fitted curve at half-maximal effect.

Structure | 2A StopGo | Cruzain inh noDet | NS1 inh | Cruzain inh Det | RE007 growth inh | SARS PLpro yeast | Marburg entry inh | LASV entry inh
CCOc1ccc(-c2nnc(SCC(=O)NCc3ccc(Cl)cc3)o2)cc1 | 11% | 20µM* | nt | 25µM* | nt | nt | 3%[46.1 µM] | 18%[46.1 µM]
CCCCCCn1c(O)c(C=NCCCn2ccnc2)c(=O)[nH]c1=O | -9% | 13% | 3% | 2.8% | -4% | 3% | -1% | 9%
COC(=O)[C@@]1(Cc2ccc(OC)cc2)[C@H]2c3cc(C(=O)N4CCCC4)n(Cc4ccsc4Br)c3C[C@H]2CN1C(=O)c1ccccc1 | -22% | ? | nt | 0.7% | 24% | nt | nt | nt
Cc1ccc(S(=O)(=O)NC(=NC(Cc2ccccc2)C(=O)O)c2ccccc2)cc1 (stereo not drawn) | 14% | nt | 11% | nt | 13% | 2% | 14%[46.1 µM] | nt
O=c1[nH][nH]c2c(N=Cc3ccccc3O)ccc(F)c12 | -21% | nt | 6% | nt | 6% | -1% | ? | ?
O=C(CSCc1c(Cl)cccc1Cl)Nc1nccs1 | 6% | -3% | 9% | -1.4% | 31%[3.69 µM] | 13% | 9% | 9%
CCCC(=O)Nc1ccc(-c2cnc(-c3ccc(NC(=O)CCC)cc3)nc2)cc1 | -11% | -20% | 9% | -2.3% | -13% | ? | 5% | 3%
Brc1cc(Br)c2ncnc(N3CCCCC3)c2c1 | ? | -6% | -46% | -5.3% | -19% | 2% | -20% | -25%
NS(=O)(=O)c1ccc(NC(=O)COc2ccc(Cl)cc2)cc1 | -22% | nt | 3% | nt | -8% | 3% | nt | nt
Cc1cc(OCc2nnc(SCC(=O)OC3CCCCC3)o2)ccc1Cl | 24% | -3% | -11% | -4.4% | 28% | 6% | -3% | 0%
CCc1nc(CN(C)C(=O)C2CCC(=O)N(Cc3cccc(F)c3)C2)no1 (stereo not drawn) | 19% | nt | -11% | nt | 8% | 6% | nt | nt
COc1ccccc1NC(=O)C1=C(C)NC(=O)NC1c1cc(C)cs1 (stereo not drawn) | -16% | -6% | 11% | -4.6% | 9% | -2% | 0% | 5%
Cc1ccc(Oc2nc3c(c(=O)n(C)c(=O)n3C)n2C)cc1C | -23% | nt | -6% | nt | -8% | 0% | nt | nt
O=C(NC1C2CC3CC(C2)CC1C3)C1CC1 (stereo not drawn) | 14% | 2% | -2% | 6.5% | -9% | -11% | -6% | ?
COc1ccc(CCNC(=O)C(=O)NCC2CCCO2)cc1OC (stereo not drawn) | -20% | -10% | 6% | 0.2% | -8% | 26% | 17% | 12%
Cc1ccc(C)c(NC(=O)CSc2nc(N)c(NC(=O)c3cccs3)c(=O)[nH]2)c1 | -18% | ? | 16% | 1.8% | 13% | 20% | 22% | 2%
CCn1c(=O)oc2cc(NC(=O)CCl)ccc21 | 22µM* | nt | nt | nt | 21% | 2% | ? | ?
O=C(CCN1CCCCC1=O)NC1CCCN(Cc2ccc(Cl)cc2)C1 (stereo not drawn) | -4% | nt | -19% | nt | -5% | 9% | 0% | 11%
COCCn1c(Cc2ccccc2)nnc1SCC(=O)NC1CC1 | 2% | nt | 4% | nt | 8% | -3% | 2%[46.1 µM] | 22%[46.1 µM]
COc1ccc(Cc2nnc(NC(=O)c3cccc([N+](=O)[O-])c3C)s2)cc1 | -4% | -18% | -9% | -0.9% | 10% | 5% | -3% | -15%
CCOc1ccc(NC(=O)C(C)O)c(NS(=O)(=O)c2ccc(CCNC(C)=O)cc2)c1 (stereo not drawn) | nt | 1% | 3% | 1.8% | 2% | 7% | 22% | 13%
O=c1cc(CN2CCN(c3ccccc3)CC2)c2c(ccc3ccccc32)o1 | 0% | ? | -19% | 3.2% | -6% | -1% | ? | ?
Brc1ccc([C@H]2CN3CCSC3=N2)cc1 | -14% | -4% | ? | -1.9% | -16%[18.4 µM] | nt | ? | -25%
COc1ccc(NS(=O)(=O)c2cccc(C(=O)NNC(=O)c3cccn3C)c2)cc1 | -2% | nt | 4% | nt | -15% | 1% | nt | nt
Cc1ccc(N2C(=O)C(Cl)=C(Nc3c(C)n(C)n(-c4ccccc4)c3=O)C2=O)cc1 | nt | 4% | -42% | -5.2% | -7% | -2% | -17% | -20%
Cc1ccc(Oc2nnc(-c3cccs3)c3ccccc23)cc1 | -3% | -13% | -7% | -5.3% | -6% | 17% | 25% | 15%
COc1ccccc1/C=C/C(=O)OCC(=O)N1CCCCC1 | 20% | nt | nt | nt | 10% | 1% | 1% | 5%
COc1cccc(CNC(=O)CCc2c(C)nn(-c3ccc(N4CCCC4)nn3)c2C)c1 | -12% | 6% | nt | -2.6% | nt | nt | nt | -1%[46.1 µM]
O=C(COC(=O)CC1CC2CCC1C2)NC(=O)NCc1ccco1 (stereo not drawn) | 7% | 5% | -18% | -7.7% | 4% | -29% | -22% | 14%
O=c1cc(O)c2ccccc2n1Cc1ccccc1F | -13% | nt | nt | nt | 12% | 17% | 30%[46.1 µM] | 3%
O=C(O)c1ccccc1C(=O)c1ccc2c(c1)N(Cc1cccc(F)c1)C(=O)CO2 | -2% | nt | -1% | nt | 5% | 1% | ? | 21%[46.1 µM]
CCCn1c(-c2ccncc2)n[nH]c1=S | -21% | nt | 1% | nt | 11% | 0% | 1% | -7%
CC(=O)/C(=N/Nc1ccccc1)N1CCOCC1 | -15% | -2% | ? | -0.8% | 110% | -14% | -15% | 11%
Cc1cccc(NC(=O)c2ccc(F)c(S(=O)(=O)NCc3ccco3)c2)c1 | -3% | nt | -13% | nt | 2% | 4% | nt | nt
CC(=O)NC1C(=O)N=C(SCc2ccccc2)NC1=O (stereo not drawn) | -7% | -9% | 8% | 0.6% | 1% | 9% | 1%[46.1 µM] | 10%
CCn1cc(C(=O)Nc2ccc(C(=O)N3CCCC3)cc2)c(=O)c2ccc(C)nc21 | nt | 3% | 5% | 5.8% | nt | 2% | nt | nt
Cc1ccc(C(=O)NC2(C(F)(F)F)N=C3SCCN3C2=O)cc1 (stereo not drawn) | 2% | -10% | -1% | 6.0% | 4% | -1% | 2% | 9%
CCC1CSC(=Nc2ccc(C)cc2)N1C(=O)CN1C(=O)NC2(CCCC2)C1=O (stereo not drawn) | 7% | nt | 4% | nt | 1% | 1% | ? | 10µM*
O=c1c2ccccc2nc(-c2ccco2)n1-c1cccnc1 | -3% | -9% | 2% | -1.1% | -2% | -2% | 12%[46.1 µM] | 16%
O=C(Nc1nccs1)c1ccc(NC(=O)c2ccco2)cc1 | 74%[activator] | 2% | -54% | -1.4% | -5% | -5% | 14% | ?
C=CCOc1ccc2c(OC)c3ccoc3nc2c1OC | 47%[activator] | 1% | -20% | -3.9% | -28% | -29% | 28% | 11%
COc1ccccc1-c1nc(C(F)(F)F)c(OC)o1 | 0% | -3% | -4% | 4.1% | -22% | 5% | -18% | -2%
CC(C)(C)c1ccc(Cn2nc(CC(=O)O)c3ccccc3c2=O)cc1 | -12% | nt | 3% | nt | -6% | 0% | -18%[14.2 µM] | 11%
O=C(Cc1ccc(Br)cc1)OCC(=O)N1CCc2ccccc2C1 | 2% | -2% | -12% | -5.2% | -8% | -9% | -1% | 28%
CN1CCN(S(=O)(=O)c2cccc(C(=O)Nc3ccc(Br)cc3Br)c2)CC1 | ? | nt | nt | nt | -24% | nt | -18% | -11%
CC(=O)c1cccc(NC(=O)c2ccc(N(C)S(=O)(=O)c3ccc(C)cc3)cc2)c1 | ? | nt | 14% | nt | 26% | -1% | nt | nt
C/C(CC(=O)Nc1ccc([N+](=O)[O-])cc1)=N/NC(=O)C1C2CCCCC21 (stereo not drawn) | -27% | nt | 2% | nt | 9% | -5% | -23%[46.1 µM] | -25%
COc1cc(/C=C/C(=O)O)ccc1OS(=O)(=O)c1cc(C)ccc1C | -2% | nt | nt | nt | 2% | -1% | 2%[46.1 µM] | 10%
O=C(CC(c1ccccc1)c1ccccc1)NCCOCc1ccccc1 | -13% | nt | -9% | nt | 6% | -1% | ? | -28%[46.1 µM]
CCOC(=O)C1CCCN(C(=O)Cc2ccc(C)cc2)C1 (stereo not drawn) | -8% | 3% | -4% | 3.3% | -9% | -3% | -1% | 10%

The results go on:
Structure | 2A StopGo | Cruzain inh noDet | NS1 inh | Cruzain inh Det | RE007 growth inh | SARS PLpro yeast | Marburg entry inh | LASV entry inh
COc1ccc(OCC(=O)Nc2cc(S(=O)(=O)N3CCCCC3)ccc2OC)cc1 | -1% | nt | nt | nt | -11% | -3% | -9% | -28%
CC(C)Cn1c(Cc2ccccc2)n[nH]c1=S | -11% | -4% | ? | 7.7% | 3% | -1% | 4% | 2%
COc1ccc(CNC(=O)COc2cc3c(c4oc(=O)cc(C)c24)CCC(C)(C)O3)cc1OC | ? | nt | 1% | nt | -2% | ? | nt | nt
CCOC(=O)c1[nH]c2ccccc2c1NC(=O)CCN1CC(C)OC(C)C1 (stereo not drawn) | 31%[activator] | -3% | 6% | 0.8% | -4% | 1% | -20% | 13%
O=C(c1ccco1)N1CCN(S(=O)(=O)Cc2ccc(Cl)cc2)CC1 | nt | -10% | 1% | -2.1% | 3% | 2% | 17% | -1%
COc1ccc(N2CCN(C(CNC(=O)COc3ccccc3)c3ccco3)CC2)cc1 (stereo not drawn) | ? | nt | nt | nt | -6% | 8% | ? | -41%
CCC(C)[C@H]1COCCS(=O)(=O)N1Cc1ccc(Cl)cc1Cl (stereo partly drawn) | -13% | nt | -80% | nt | -8% | -16% | nt | nt
O=C(Oc1ccc(Br)cc1)C1CCN(C2=NS(=O)(=O)c3ccccc32)CC1 | -12% | nt | nt | nt | -14% | 0% | -6% | -4%
O=C(CCCn1cncn1)N1CCCC(Nc2ccc(F)cc2)C1 (stereo not drawn) | -14% | nt | 8% | nt | 0% | 0% | 16% | -6%
COc1ccc(CCNC(=O)c2ccc(OCc3c(C)noc3C)c(OC)c2)cc1 | -22% | nt | nt | nt | 3% | 0% | 12% | ?
O=C(/C=C/c1cccc(Br)c1)NC1CCN(Cc2ccccc2)CC1 | ? | nt | 2% | nt | -8% | -1% | ? | 28%[46.1 µM]
COc1cc2c(cc1OC)CN(C(=S)Nc1ccc(C)cc1C)CC2 | 0% | 2% | -5% | -2.1% | -23% | -59% | -11% | -6%
